Screening results (PubChem)
BJeLR lethal = BJeLR cell viability loss. BJeLR (HRASV12) viability, CellTiter-Glo ATP luminescence, 48 h; reference of the scale not given here. inhibition, % (test concentration not listed). 0.17% of 300,000 active. AID 1554;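 active means replicate mean above 50%; inconclusive means above 50% but judged a plate artefact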;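 further: 50 nL library stock added to about 25 µL; numbers are from one replicate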
ugtP null kill = growth inhibition of S. aureus ugtP deletion strain; S. aureus RN4220 ugtP deletion, OD600 growth, 16 h; some inactives read as strong as hits; growth inhibition, % (test concentration not listed); 0.54% of 330,000 active; AID 1259309;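 active means z-score under -3 and OD600 up to 0.15 on both plates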;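 further: plate controls were untreated wells for no effect and antibiotic for full effect; wells of about 80 µL received 100 nL stock; the first replicate is given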
Mtb hypoxia inh = reduces hypoxia-regulated biosensor signal in M. tuberculosis | AID 1159583 | M. tuberculosis hypoxia-regulated fluorescent reporter, fluorescence | fluorescence inhibition, % (concentration not given with the values) | 0.1% of 300,000 active;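 active means 35 to 45% if threefold the growth effect, above 45% if 1.5-fold the growth effect; inactive means the rest, general growth blockers included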;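 further: wells of about 50 µL received 100 nL stock; 0% = vehicle wells and 100% = reference inhibitor wells; whole bacteria with a GFP reporter of the hypoxia response; strong numbers were not always called active; many hits fall short of the cut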
Sa RN4220 lethal = kills Staphylococcus aureus RN4220; S. aureus RN4220 growth, OD600, 16 h; inhibition, % (test concentration not listed); 0.33% of 330,000 active; AID 1259311;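 active means z-score of -3 or lower and OD600 up to 0.18 on both plates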;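 further: plate controls were untreated cells for no effect and reference antibiotic for full effect; stock transfer was 100 nL into about 80 µL; one replicate is shown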
Bead autofluor = compound fluorescence in toxin protease inhibitor counterscreen; compound autofluorescence counterscreen, microsphere flow cytometry; active compounds read high; fluorescence intensity (test concentration not listed); 3.1% of 360,000 active; AID 624483;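 active means at least 3 SD above the mean of all compounds, about 16000 in these data; inconclusive means too few beads counted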;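 further: 100 nL of 1 mM stock went into each well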
PrP UTR inh = inhibition of PrP 5' UTR reporter expression. AID 488862. 0.35% of 340,000 active. inhibition, % (concentration not given with the values). cell-based PrP 5' UTR mRNA reporter, plate reader;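 active means every replicate at 50% or more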;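 further: 0 = median of the neutral control wells; tested in H4 reporter cells; numbers are from one replicate; inactives centre near -14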
Mtb hypoxia inh growth = further read-out of Mtb hypoxia inh, marked with its call; growth inhibition, %; measured here: M. tuberculosis growth (absorbance);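 0% = vehicle and 100% = reference antibiotic; read after six days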
* marks the source's active call; other numbers are inactive results; u = inconclusive; x = no result given.

SMILES	BJeLR lethal	ugtP null kill	Mtb hypoxia inh	Mtb hypoxia inh growth	Sa RN4220 lethal	Bead autofluor	PrP UTR inh
CCOCCCNCc1ccc(OCc2ccccc2Cl)cc1	-7.5	-6.2	6.3	4.5	-4.9	2098	-10.5
CCn1c(=O)n(CC)c2cc(N3CCCC3)c(NC(=O)c3ccc(OC)c(Br)c3)cc21	6.0	-6.8	-4.2	-2.6	-1.0	4481	-10.7
O=C(O)CCc1nnc(SCC(=O)Nc2cccc(C(F)(F)F)c2)[nH]c1=O	-0.8	1.0	8.3	8.2	3.6	2066	-4.3
O=C(CCc1ccccc1)OCC(=O)c1cccc([N+](=O)[O-])c1	6.5	5.3	10.6	-4.0	7.5	3113	-16.7
Cc1ccc(S(=O)(=O)N2CCN(S(=O)(=O)N3CCOCC3)CC2)c(C)c1	-3.7	9.1	11.2	0.1	2.3	4913	-24.1
OC(CSc1ccc(F)cc1)CN1CCN(c2ccccc2)CC1 (configuration not stated)	1.4	3.7	11.0	13.9	2.1	5101	-20.2
CCOc1ccc(NS(=O)(=O)c2cc(C(=O)N3CCN(c4ccccc4O)CC3)ccc2Cl)cc1	x	-5.2	3.6	3.9	-3.5	5326	-0.9
Cc1cc(OCC(=O)N2CCN(c3ccccn3)CC2)c(C)cc1Br	2.8	6.8	0.7	-4.9	3.5	5155	-25.5
COc1ccc(S(=O)(=O)N2CCCC2C(=O)NCc2cccs2)cc1 (configuration not stated)	-7.1	-0.2	17.4	9.7	-0.2	4027	-2.2
Cn1c(-c2cc3c(C(F)(F)F)nn(C)c3s2)n[nH]c1=S	-2.0	-1.4	4.8	-2.7	9.5	2870	-13.0
Clc1cccc(-c2nc(NCC3CCCO3)c3ccccc3n2)c1 (configuration not stated)	-2.4	5.1	7.1	7.7	-16.6	4324	0.7
CCCCOC(=O)CCc1n[nH]c(=O)[nH]c1=O	-6.8	0.9	x	x	0.9	5073	-15.3
c1ccc(C(c2ccccc2)c2nc(-c3cccnc3)no2)cc1	6.0	8.0	16.8	4.6	15.5	7931	-99.4
COc1cnc(-c2ccccc2)nc1Oc1ccccc1C	-4.6	56.1	x	x	-3.0	2503	-20.9
COc1ccc(S(=O)(=O)Nc2cccc3ccc(O)cc23)cc1	22.4	-10.0	17.7	8.0	11.1	2963	-24.1
CS(=O)(=O)c1cnc(-c2ccccc2)nc1-c1ccc(Cl)c(Cl)c1	-6.8	2.1	8.6	0.0	4.1	4344	-31.8
CC(C)c1ccccc1NC(=O)CSc1n[nH]c(=O)n1C1CC1	x	-3.7	-8.0	-0.8	-4.9	6424	-10.8
CC(C)(C)C#CCn1c(/C=[N+](\[O-])C2CCCCC2)nc2ccccc21	5.6	x	x	x	x	3539	-20.0
CCOC(=O)c1nc2ccccc2c(=O)n1-c1ccc(C)cc1	2.6	27.7	x	x	-1.6	4667	-24.4
O=C(NCCn1cccn1)c1ccc(OC2CCN(CCc3ccccc3)CC2)cc1	3.6	-61.8	5.7	8.5	14.7	4163	-22.3
Cc1ccc2c(c1)c1c(n2C)C(=O)CCC1	-1.0	3.9	6.7	-0.8	1.8	4190	-2.8
CC1(C)Cc2c(sc(NC(=O)C(=O)N3CCOCC3)c2C(N)=O)CO1	2.6	-1.6	-6.2	0.6	-1.4	5618	-2.2
COc1cccc(C=NNc2nc3ccccc3n3cnnc23)c1	x	-3.0	-3.7	7.1	-1.0	x	x
O=C(Nc1ccccc1-c1nc2ccccc2s1)c1ccco1	15.8	-16.3	-7.0	-1.8	0.8	3130	-0.6
CCCCOc1ccc(C(=O)Nc2ccc(SC(F)F)cc2)cc1OC	6.5	6.2	4.3	6.2	2.6	2033	-12.2

Next part; it opens with the 2 that closed the last part.
SMILES	BJeLR lethal	ugtP null kill	Mtb hypoxia inh	Mtb hypoxia inh growth	Sa RN4220 lethal	Bead autofluor	PrP UTR inh
O=C(Nc1ccccc1-c1nc2ccccc2s1)c1ccco1	15.8	-16.3	-7.0	-1.8	0.8	3130	-0.6
CCCCOc1ccc(C(=O)Nc2ccc(SC(F)F)cc2)cc1OC	6.5	6.2	4.3	6.2	2.6	2033	-12.2
COc1ccc(Cc2nnc(NC(C)=O)s2)cc1	-1.7	3.7	9.2	-5.9	4.3	4576	-3.1
C=CCn1c(SCC(=O)Nc2c(C)nn(Cc3ccccc3)c2C)nnc1C(O)c1ccccc1 (configuration not stated)	0.7	4.0	7.8	-1.5	5.4	6836	-11.6
COc1ccc(Cl)cc1NC(=O)CCc1nc(-c2ccccc2F)no1	-0.3	5.2	-0.9	7.1	1.0	4978	-23.2
COc1cc(OC)cc(C(=O)NNC(=O)CCNC(=O)c2ccc(Br)cc2)c1	x	2.3	7.2	4.8	3.7	4049	-11.8
CC(C)N(Cc1nc(COc2ccccc2)no1)Cc1nccn1C	3.6	8.7	1.3	7.3	3.6	3752	-1.8
CN(C)CCCNC(=S)N(Cc1cccs1)Cc1cc2cc3c(cc2[nH]c1=O)OCCO3	12.7	1.6	6.7	9.4	-1.0	6772	-35.3
CCn1c(-c2ccco2)n[nH]c1=S	-6.5	-0.4	6.7	8.4	2.1	4447	-13.2
O=C(Nc1nncs1)c1cc(S(=O)(=O)N2CCCCC2)ccc1Cl	-11.2	18.7	5.8	11.0	-7.0	5799	-12.8
COCCNC(=S)NC12CC3CC(CC(C3)C1)C2	1.2	5.1	x	x	-0.7	4044	-17.2
Cc1ccc(S(=O)(=O)C2(C(=O)Nc3ccc4c(c3)OCO4)CC2)cc1	-0.1	13.8	9.7	6.6	2.5	5344	-28.8
CCc1ccc(CN2C(=O)c3ccccc3C2C(=O)NC(C)CC)cc1 (configuration not stated)	-4.9	3.7	-11.8	-6.8	5.1	2887	x
O=C(Oc1ccc(/C=N/O)cc1)c1ccccc1	-12.2	x	x	x	x	10510	-22.2
O=C(NC1CCCCC1)C(c1cccnc1)N(C(=O)CCl)c1ccc(F)cc1 (configuration not stated)	50.0	2.1	13.9	22.9	5.2	2675	-24.5
CC(C)CN(C(=O)c1nn(C)c(=O)c2ccccc12)c1nc2ccccc2s1	7.0	19.7	0.3	-1.4	26.3	2428	-22.7
CC1=CC(=O)C(C(C)=Nc2ccccc2Cl)C(=O)O1 (configuration not stated)	0.6	2.7	14.2	-0.7	0.8	6084	2.2
O=C(Nc1cccc(O)c1)c1cc2nc(-c3ccccc3)cc(-c3ccccc3)n2n1	-10.6	28.2	-6.2	-5.8	-8.7	4217	-23.2
COc1cccc(CNc2cccc(C(F)(F)F)c2)c1O	-5.0	11.3	10.4	9.0	0.9	4546	-13.3
Cc1cc(=O)[nH]c(SCC(=O)NCCc2ccccc2)n1	-2.0	2.4	8.7	7.7	5.1	11366	x
CC(C)(C)c1[nH]nc2c1C(C1C=CCCC1)C(C#N)=C(N)O2 (configuration not stated)	-1.5	-9.3	-1.4	-3.7	6.4	u	-11.7
Cc1ccccc1OCC(=O)NN1Cc2ccccc2C1=N	-4.1	5.3	12.8	6.3	5.9	3344	-18.3
Cc1csc(NC(=O)c2ccc(C)o2)n1	9.4	-14.5	4.2	2.3	2.6	2582	-44.8
C(=C/c1ccnc2nc(SC/C=C/c3ccccc3)nn12)/c1ccccc1	-4.6	0.3	3.2	-4.5	8.8	u	-20.0
COc1ccc(C(=O)N[C@H](C(=O)NCc2ccccc2)C(C)C)cc1	-8.9	9.3	3.8	9.1	0.7	5578	-2.1
COc1ccc(C(=O)O/N=C(\C)c2cnccn2)cc1	-1.1	x	x	x	x	3102	-37.4
CC(=O)N1CCN(c2ccc(NC(=O)C(C)Oc3ccc(Cl)cc3Cl)cc2)CC1 (configuration not stated)	-8.2	-1.4	4.9	8.1	4.9	4519	-6.0

As a working copy, part of the list above:
SMILES	BJeLR lethal	ugtP null kill	Mtb hypoxia inh	Mtb hypoxia inh growth	Sa RN4220 lethal	Bead autofluor	PrP UTR inh
COc1ccc(Cc2nnc(NC(C)=O)s2)cc1	-1.7	3.7	9.2	-5.9	4.3	4576	-3.1
C=CCn1c(SCC(=O)Nc2c(C)nn(Cc3ccccc3)c2C)nnc1C(O)c1ccccc1 (configuration not stated)	0.7	4.0	7.8	-1.5	5.4	6836	-11.6
COc1ccc(Cl)cc1NC(=O)CCc1nc(-c2ccccc2F)no1	-0.3	5.2	-0.9	7.1	1.0	4978	-23.2
COc1cc(OC)cc(C(=O)NNC(=O)CCNC(=O)c2ccc(Br)cc2)c1	x	2.3	7.2	4.8	3.7	4049	-11.8
CC(C)N(Cc1nc(COc2ccccc2)no1)Cc1nccn1C	3.6	8.7	1.3	7.3	3.6	3752	-1.8
CN(C)CCCNC(=S)N(Cc1cccs1)Cc1cc2cc3c(cc2[nH]c1=O)OCCO3	12.7	1.6	6.7	9.4	-1.0	6772	-35.3
CCn1c(-c2ccco2)n[nH]c1=S	-6.5	-0.4	6.7	8.4	2.1	4447	-13.2
O=C(Nc1nncs1)c1cc(S(=O)(=O)N2CCCCC2)ccc1Cl	-11.2	18.7	5.8	11.0	-7.0	5799	-12.8
COCCNC(=S)NC12CC3CC(CC(C3)C1)C2	1.2	5.1	x	x	-0.7	4044	-17.2
Cc1ccc(S(=O)(=O)C2(C(=O)Nc3ccc4c(c3)OCO4)CC2)cc1	-0.1	13.8	9.7	6.6	2.5	5344	-28.8

Further structures:
SMILES	BJeLR lethal	ugtP null kill	Mtb hypoxia inh	Mtb hypoxia inh growth	Sa RN4220 lethal	Bead autofluor	PrP UTR inh
CC(NS(=O)(=O)c1c(N)n(C)c(=O)n(C)c1=O)c1ccccc1 (configuration not stated)	-28.0	3.9	5.0	-1.9	-0.3	5743	-11.9
O=C(NN=Cc1cccc(Cl)c1)c1ccc(Cn2cccn2)o1	x	-6.2	-5.5	-8.1	-4.1	x	x
C=CCn1c(Oc2ccccc2)nc2c1c(=O)n(C)c(=O)n2C	1.5	0.6	5.1	4.6	0.3	3983	-12.4
COCCN(CCOC)C(=O)COC(=O)c1ccc(Cl)c(S(=O)(=O)N(C)c2ccccc2)c1	4.0	5.0	13.6	8.0	9.8	4567	-14.9
Cc1cc(C)cc(OCC(=O)Nc2cccc(-c3nc4ncccc4o3)c2)c1	7.8	6.2	6.2	-0.9	6.7	5262	-20.1
Cc1ccsc1C=C1SC(=O)N(CC(=O)N2CCOCC2)C1=O	x	-6.9	-2.9	4.4	2.2	x	x
COc1ccc(NC(=O)c2cc(S(=O)(=O)N3CCCCC3)ccc2C)cc1S(=O)(=O)N1CCOCC1	x	7.5	10.5	5.3	1.4	7731	-16.1
Cc1nc(-c2ccc(Cl)cc2)sc1C1(C)CC(c2ccccc2Br)=NO1 (configuration not stated)	-2.2	12.9	-0.2	-4.3	0.9	4063	-31.8
O=[N+]([O-])c1ccc(/C=C/c2ccc3cccc(O)c3n2)cc1	-3.6	-9.7	-21.5	5.1	5.8	3168	-34.4
Cc1cc(=O)[nH]c(N=C(N)Nc2ccc(SC(F)F)cc2)n1	x	4.4	16.0	8.9	-7.1	x	x
CC(C)n1nccc1NC(=O)Nc1ccccc1	1.1	0.1	16.2	1.6	1.0	5365	-3.7
COc1cc(/C=C/c2ccc3cccc(OC)c3n2)c(OC(C)=O)c([N+](=O)[O-])c1	0.5	-9.6	4.5	-0.6	7.8	8704	-32.7
COC(=O)C1=C(c2ccc(OC)c(OC)c2)CC2CCC1N2C(=O)N1CCCC1 (configuration not stated)	x	-1.2	7.0	7.6	2.3	x	x
O=C(COC(=O)c1cccnc1Cl)Nc1ncc(Cl)cc1Cl	-3.6	2.4	14.1	2.0	0.7	4299	-31.1
COc1ccc(CN(C)CC(=O)Nc2cccc(S(N)(=O)=O)c2)c(OC)c1OC	1.4	15.6	1.7	15.9	5.7	3598	-4.8
CCOC(=O)C(CCCCOc1ccc([N+](=O)[O-])cc1)C(=O)OCC	-11.6	-4.0	0.7	9.3	-4.2	10772	x
CCn1cc(C(=O)NCCCOC)c(=O)c2cc(S(=O)(=O)N(C)C)ccc21	-0.9	8.7	x	x	4.6	6294	-16.0
Cc1nc(Nc2cccc(C(C)O)c2)c2nnn(Cc3ccc(F)cc3)c2n1 (configuration not stated)	0.4	-65.2	8.6	-1.2	0.9	4248	3.1
COc1ccc(S(=O)(=O)Nc2ccccn2)cc1C	3.5	4.9	-2.2	-4.3	2.0	3507	-7.0

This is a random part of the collection. Share with any hit: about 4%.
